Screening data from PubChem BioAssay.
KCNQ2 pot: KCNQ2 (rat) channel potentiation | O88943 | CHO-K1 KCNQ2, FluxOR thallium flux fluorescence; active compounds read high | B-score at 10 µM | actives 0.54% (n = 310,000);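 active means fluorescence ratio B-score at least 3 SD of library B-scores, with initial fluorescence B-score within 3 SD, cut at about 5.3 in these data; same plate scores as AID 2156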;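 further: B-score of peak minus minimum over baseline fluorescence ratio after K+ and Tl+ stimulus; positive B-score means potentiation of KCNQ2 with more thallium influx and brighter signal; only the inactives scoring about 0 or higher are listed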
Target sequence (O88943 whole entry, looked up): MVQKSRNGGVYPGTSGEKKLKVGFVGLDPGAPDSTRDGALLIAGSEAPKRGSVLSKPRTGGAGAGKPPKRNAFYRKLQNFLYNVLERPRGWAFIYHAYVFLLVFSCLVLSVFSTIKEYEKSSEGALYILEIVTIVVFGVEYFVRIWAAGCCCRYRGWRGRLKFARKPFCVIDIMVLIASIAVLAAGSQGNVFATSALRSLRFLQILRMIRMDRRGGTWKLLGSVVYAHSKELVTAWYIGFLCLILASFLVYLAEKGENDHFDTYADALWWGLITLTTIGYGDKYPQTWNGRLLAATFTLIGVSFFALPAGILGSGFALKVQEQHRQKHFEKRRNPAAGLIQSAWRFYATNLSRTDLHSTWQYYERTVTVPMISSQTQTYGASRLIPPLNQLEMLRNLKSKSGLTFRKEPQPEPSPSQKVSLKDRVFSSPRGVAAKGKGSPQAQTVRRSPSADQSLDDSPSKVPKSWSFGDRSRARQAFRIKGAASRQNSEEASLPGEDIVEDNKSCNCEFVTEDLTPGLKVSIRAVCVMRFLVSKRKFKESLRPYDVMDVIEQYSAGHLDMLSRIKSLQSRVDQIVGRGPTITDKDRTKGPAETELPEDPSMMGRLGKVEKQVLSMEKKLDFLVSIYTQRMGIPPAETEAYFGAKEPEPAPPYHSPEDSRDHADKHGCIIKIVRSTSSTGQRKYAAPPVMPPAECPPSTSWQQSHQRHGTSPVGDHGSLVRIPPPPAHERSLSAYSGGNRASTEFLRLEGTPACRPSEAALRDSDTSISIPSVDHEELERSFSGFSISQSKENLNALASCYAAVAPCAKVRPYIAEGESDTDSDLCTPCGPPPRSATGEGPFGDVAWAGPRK
KCNQ2 pot baseline: also measured in KCNQ2 pot; calls as there; B-score; compound at 10 µM; measured here: initial fluorescence intensity artifact check;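 brightness before thallium and not channel activity; 0 = typical well and far values either way flag optical interference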
Active calls of the source: *. Only part of the results is shown; count on the stated rates, not on these rows.

KCNQ2 pot | KCNQ2 pot baseline | structure
0.05 | 0.29 | O=C(Nc1ccc(OC(F)F)c(Cl)c1)c1ccccn1
0.17 | 0.32 | C[C@H](NC(=O)c1nc[nH]c1C(=O)NCC(=O)OC(C)(C)C)c1ccccc1
1.7 | 0.78 | O=C(O)CSCC(=O)Nc1ccc(C2CCCCC2)cc1
0.36 | -1 | Cc1sc2nc(C3CC3)nc(NCCNS(C)(=O)=O)c2c1C
0.48 | -0.17 | N=c1c(C(=O)NC2CCCC2)cc2c(=O)n3ccccc3nc2n1Cc1ccccc1
1.6 | 0.71 | NC(=O)CS(=O)(=O)c1nc2ccccc2n1Cc1ccccc1F
2.3 | -1.6 | O=C(CN(C1CCCCC1)S(=O)(=O)c1ccc(F)cc1)NC1CC1
0.01 | -0.07 | COc1ccc(C(=O)c2cn[nH]c2-c2cc(C)ccc2O)cc1
0.75 | -1.1 | COc1ccc([N+](=O)[O-])cc1C1NN=C(c2ccccc2O)S1 (stereo not given)
0.13 | 0.17 | COc1ccc(Nc2sc(C(=O)Nc3cccc(Cl)c3)c(N)c2C(=O)Nc2ccccc2OC)cc1
0.4 | -0.15 | CCCNC(=S)N1CCC(C(=O)c2ccc(F)cc2)CC1
1 | 0.04 | O=C(Cc1c(O)c2ccccc2[nH]c1=O)NC1CCCCCCC1
0.58 | -0.8 | COc1ccc2oc(=O)c(-c3csc(Nc4cccc(O)c4)n3)cc2c1
0.43 | -2 | O=C(CC(c1ccccc1)c1ccccc1O)N1CCCC1 (stereo not given)
1.6 | 0.02 | COCc1cc(C)nc(SCC(=O)Nc2ccc3c(c2)n(C)c(=O)n3C)c1C#N
0.95 | 1.4 | Cc1ccc(CNC(=O)CCCCCNc2nc(=S)[nH]c3ccccc23)cc1
0.05 | -1 | N#Cc1ccccc1Oc1ccc(S(=O)(=O)N2CCCCC2)cn1
0.49 | -0.09 | COc1cc(C2N(c3ccccn3)C(=O)C3CCCN32)cc(OC)c1OC (stereo not given)
0.86 | -0.05 | Cc1c(CC(=O)O)c(=O)oc2cc(OCc3ccc(Cl)cc3)ccc12
0.17 | -0.94 | CCOC(=O)CSc1nnc(NC(=O)c2cccc([N+](=O)[O-])c2C)s1
0.15 | 0.74 | COc1ccc(CNC(=O)C2CCCN2C)cc1OC (stereo not given)
0.02 | 0.56 | O=C(O)c1ccc2c(c1)C(=O)N(c1nccs1)C2=O
0.03 | 0.67 | CCN1CCSc2ccc(C(=O)Nc3ccc(NC(C)=O)cc3)cc21
1.3 | -1.1 | COc1cccc(C(=O)COC(=O)C(C)N2C(=O)C3C4C=CC(C4)C3C2=O)c1 (stereo not given)
0.35 | -0.31 | COc1cccc(C(=O)NN2C(=O)C3C4C=CC(O4)C3C2=O)c1 (stereo not given)
1.4 | -2.3 | Cc1nccn1C(c1ccccc1)c1ccccc1
0.84 | -1 | CCCCCC(=O)Nc1ccc(C2C(=O)c3ccccc3C2=O)cc1
2 | 0.61 | Nc1nc2ccc(Cl)cc2c2nc(-c3ccco3)nn12
0.77 | 0 | O=C(NC1CC2CCCC(C1)N2Cc1cccs1)c1ccc([N+](=O)[O-])cc1 (stereo not given)
1.3 | 0.01 | O=C1NC(c2ccncc2)Nc2ccccc21 (stereo not given)
1.4 | 0.32 | COc1ccc(-c2cc(=O)oc3c(O)c(O)ccc23)cc1
0.84 | -1.1 | CC(Cc1cccs1)NC(=S)Nc1ccccc1 (stereo not given)
0.68 | -0.77 | COc1ccc(CNCc2cccc(C)c2)cc1
0.34 | 0.69 | CSc1nnc(SCC(=O)NC(=O)c2ccccc2)s1
0.02 | -0.35 | CCn1c(SCC(=O)OC2CCCCC2)nnc1-c1ccncc1
1.6 | -0.03 | COc1cc(O)c(C(CC(=O)N2CCCC(C)C2)c2ccc(N(C)C)cc2)c(OC)c1 (stereo not given)
1.3 | 0.64 | Cn1c(=O)c2c(nc(CN3CCN(c4ccccc4F)CC3)n2CCN2CCOCC2)n(C)c1=O
1.1 | 0 | Cn1ccnc1COc1ccc(C=O)cc1
1 | -0.8 | CCOC(=O)c1ccc(S(=O)(=O)NCCN(CC)CC)cc1
0.35 | -0.55 | Cc1c(N=C2SCC(=O)N2c2c(C)n(C)n(-c3ccccc3)c2=O)c(=O)n(-c2ccccc2)n1C
0.01 | -2.2 | CCOC(=O)C1CCN(CC(=O)Nc2c(C(=O)OC)[nH]c3cccc(Cl)c23)CC1
0.05 | -1.4 | CSc1ccc(Cl)c(C(=O)OCC(=O)N2CCOCC2)c1
0.04 | 0.07 | O=C(CN1C(=O)NC2(CCCC2)C1=O)Nc1ccc(Cl)c(C(F)(F)F)c1
1.4 | -0.56 | CC(C)C[C@H](NC(=O)c1[nH]cnc1C(=O)N[C@@H](C)C(=O)OC(C)(C)C)C(=O)OC(C)(C)C
0.35 | 0.14 | COc1ccc(/C(N)=N/OC(=O)CC2CCCCC2)cc1OC
1.1 | -0.29 | CCN(CC)CCCN1C(=O)C(=O)/C(=C(/O)c2cc(C)ccc2C)C1c1cccnc1 (stereo not given)
1.3 | -0.75 | Cc1csc(SCC(=O)NCc2cccc(Cl)c2)n1
0.56 | -2.8 | CCC(C)(C)n1nnnc1CN1CCN(c2nc3ccc(C)cc3cc2C#N)CC1
0.26 | 0.11 | COCC1CCCCN1C(=O)c1ccc2oc(CCc3ccccc3)nc2c1 (stereo not given)
2.3 | -0.1 | c1ccc(CN2CCN(Cc3cn4cccnc4n3)CC2)cc1
0.38 | -0.02 | Cc1cccc(/C=C/c2onc(C)c2S(=O)(=O)N2CCC(C(=O)NC(C)C)CC2)c1
0.84 | 0.7 | Cn1c(C(=O)N[C@@H](C(=O)O)c2ccccc2)cc2cc(F)ccc21
1 | 0.2 | COc1ccc(-n2nnnc2SCC(=O)Nc2cccc(NC(C)=O)c2)cc1OC
0.32 | 0.88 | Nn1c(SCc2ccccc2)nnc1-c1ccccn1
2.4 | -0.14 | COc1ccccc1NC(=O)N1CCC(c2nc3ccccc3o2)CC1
1.1 | -1.2 | COc1ccc(CN2CCNC(=O)C2CC(=O)NCc2ccc(C)s2)c(OC)c1 (stereo not given)
0.68 | -1.6 | Cc1nnc(SCC(=O)N2CCCCCC2)n(N)c1=O
1.2 | -0.7 | O=C(Nc1ccc(N2CCCC2)c(Cl)c1)c1ccccc1[N+](=O)[O-]
1.2 | 0.09 | O=C(CN1CCCCCC1)NCc1ccccc1
1.1 | -1.1 | Cc1ccc(C2=NN(C(=O)CCC(=O)O)C(c3cn(-c4ccccc4)nc3-c3ccc(C)cc3)C2)cc1 (stereo not given)

Whole records, looked up by structure. Values in the order: KCNQ2 pot	KCNQ2 pot baseline
Record of `Nn1c(SCc2ccccc2)nnc1-c1ccccn1` : 0.32	0.88
Record of `CCC(C)(C)n1nnnc1CN1CCN(c2nc3ccc(C)cc3cc2C#N)CC1` : 0.56	-2.8
Record of `COc1ccc(CN2CCNC(=O)C2CC(=O)NCc2ccc(C)s2)c(OC)c1` (stereo not given) : 1.1	-1.2
Record of `Cn1c(C(=O)N[C@@H](C(=O)O)c2ccccc2)cc2cc(F)ccc21` : 0.84	0.7
Record of `CCN(CC)CCCN1C(=O)C(=O)/C(=C(/O)c2cc(C)ccc2C)C1c1cccnc1` (stereo not given) : 1.1	-0.29

4 entries from above, as labelled records:
> CCN(CC)CCCN1C(=O)C(=O)/C(=C(/O)c2cc(C)ccc2C)C1c1cccnc1 (stereo not given)
  KCNQ2 pot = 1.1; KCNQ2 pot baseline = -0.29

> Cn1c(C(=O)N[C@@H](C(=O)O)c2ccccc2)cc2cc(F)ccc21
  KCNQ2 pot = 0.84; KCNQ2 pot baseline = 0.7

> Cc1nnc(SCC(=O)N2CCCCCC2)n(N)c1=O
  KCNQ2 pot = 0.68; KCNQ2 pot baseline = -1.6

> Nn1c(SCc2ccccc2)nnc1-c1ccccn1
  KCNQ2 pot = 0.32; KCNQ2 pot baseline = 0.88

Next part.
KCNQ2 pot | KCNQ2 pot baseline | structure
1 | -0.96 | O=[N+]([O-])c1cnc2ccccc2c1
0.83 | 0.73 | COc1nc(-c2cnccn2)sc1C
0.33 | 1 | CCCCC(=O)OCC(=O)Nc1ccc(OC(F)F)cc1
0.01 | 1.1 | COc1ccc(C(C)(C)C)cc1S(=O)(=O)N1CCN(C)CC1
1.2 | -0.74 | CC(O)Cn1cnc2c1c(=O)n(C)c(=O)n2C (stereo not given)
15* | -0.21* | CCCCCc1ccc(CC(=O)Nn2c(C)nc3ccccc3c2=O)cc1
0.1 | 2.2 | CCC(=O)NC(c1cccc([N+](=O)[O-])c1)c1c(O)ccc2ccccc12 (stereo not given)
1.3 | -0.16 | CCOc1cccc(CNCc2ccncc2)c1
0.74 | -0.05 | O=C(NCCc1c[nH]c2ccccc12)N[C@@H](Cc1ccccc1)C(=O)O
0.16 | 3.4 | CCOC(=O)/C(O)=C(\C#N)c1nc2ccccc2[nH]1
0.18 | 1.8 | CCOC(=O)C1CCN(S(=O)(=O)c2cccc(C(=O)Nc3ccccc3)c2)CC1
0.18 | -0.37 | CCOC(=O)c1sc(S(C)(=O)=O)c2c1CC(C)(C)C/C2=N/O
1.2 | -0.46 | COC(=O)Cc1cc(OC)c(OC)cc1Cc1cc(OC)c(OC)cc1CC(=O)OC
1.6 | -0.08 | CC(C)c1[nH]c(=O)c(C#N)c2c1COC(C)(C)C2
1.2 | -2.5 | COc1ccc2c(CC(=O)Nc3ccc(OC)c(S(=O)(=O)N4CCOCC4)c3)coc2c1
0.87 | 0.61 | COc1ccc(CCNC(=O)CC(NS(=O)(=O)c2ccc(NC(C)=O)cc2)C(C)C)cc1OC (stereo not given)
0.49 | -1.4 | COCCCN(C(=O)c1cc(-c2ccco2)nc2ccccc12)c1c(N)n(Cc2ccccc2)c(=O)[nH]c1=O
1.5 | -1.1 | CCCCN1C(=O)CC(Nc2ccc(CC)cc2)C1=O (stereo not given)
2.2 | -1.3 | CCCCNC(=O)c1onc(CSc2ccc(Cl)cc2)c1C(=O)NCCCC
1.3 | 0.6 | COc1cc(S(=O)(=O)Nc2cccc3cn[nH]c23)c(OC)cc1C
1.3 | -0.05 | O=C(O)CC(C(=O)NCc1ccccc1)C1CCCO1 (stereo not given)
1.7 | -0.67 | COc1ccc(NC(=O)c2c(C)noc2-c2snnc2C)cc1
0.15 | 3.7 | O=C1/C(=C/c2ccc3c(c2)OCO3)Oc2cc(OCC(=O)N3CC(O)C[C@H]3C(=O)O)ccc21 (stereo not given in full)
1.9 | -0.67 | Cc1nc(=O)c(-c2ccccc2)c(C)n1-c1ccc(O)c(C(=O)O)c1
1.3 | 0.71 | O=C(/C=C/c1ccc2c(c1)OCO2)Nc1nc(-c2ccc(F)cc2F)cs1
0.58 | -0.01 | CCn1c(SCc2ccccc2)nnc1-c1ccc(S(=O)(=O)N2CCCCC2)cc1
0.8 | 1.3 | O=C(NCCN1CCOCC1)c1cc(-c2ccc(Cl)c(Cl)c2)on1
1.2 | -0.08 | S=c1[nH]nc(-c2ccncc2)n1Cc1ccco1
0.45 | -0.83 | CC(NC(=O)c1ccc([N+](=O)[O-])cc1[N+](=O)[O-])c1ccc(-c2ccccc2)cc1 (stereo not given)
1.8 | -1.1 | CC(=O)N1N=C(N)SC12CCCC2
0.9 | -0.13 | O=C(Cn1cccc1C(=O)c1ccccc1)NCCN1CCCCCC1
0.3 | 0.8 | CCOC(=O)c1c(N)nn(C(C)=O)c1-c1ccccc1
1.7 | -0.28 | COc1ccc(-n2nc([N+](=O)[O-])c(=NC3CCN(Cc4ccccc4)CC3)n2O)cc1
0.15 | -1.7 | C[n+]1ccc(/C=C/c2ccccc2O)c2ccccc21
0.8 | -0.11 | CCOC(=O)CN1C(=O)SC(Nc2ccc(C)cc2)C1=O (stereo not given)
1.1 | -0.28 | Brc1ccccc1Cn1cnc2ccccc21
1.3 | -1 | COc1ccccc1C(=O)NC1CCN(C(=O)Nc2ccc(F)cc2)CC1
0.01 | 2.4 | COc1ccc(N2CCN(C(C)C(=O)N(C)Cc3ccccc3)CC2)cc1 (stereo not given)
0.01 | 1.1 | CCOC(=O)Cn1c(=O)oc2cc(S(=O)(=O)Nc3cc(Cl)ccc3OC)ccc21
0.36 | 1 | O=C1CCCN1CCC1CCN(C2CC(=O)N(Cc3ccc(N4CCCC4=O)cc3)C2=O)CC1 (stereo not given)
1.7 | -0.43 | CCN1CCN(CC#CCOc2ccccc2OC)CC1
0.76 | -0.61 | Cc1cc(SC(C)C(=O)NCC(=O)Nc2ccc(F)c(F)c2F)nc2ccccc12 (stereo not given)
0.57 | 0.51 | Cc1c(C(=O)Nc2ccc(F)cc2)cn2c(nc3ccccc32)c1C#N
0.17 | -2.3 | COc1ccccc1NC(=O)CC(=O)c1cccc([N+](=O)[O-])c1
0.38 | -0.83 | COc1ccc(OC)c(NC(=O)COC(=O)c2ccc(S(=O)(=O)N3CCOCC3)cc2)c1
0.04 | -0.53 | O=C(NCCOc1ccccc1)C1CCC(=O)N(CCN2CCOCC2)C1 (stereo not given)
0.51 | -0.32 | O=S(=O)(c1ccc(F)cc1)N1CCN(C(=S)NCc2ccccc2)CC1
0.49 | -0.25 | O=C(NNC(=O)c1ccncc1)Nc1ccccc1
0.02 | -0.51 | Cc1cccc(C)c1NC(=O)COC(=O)c1ccc([N+](=O)[O-])o1
0.4 | -0.01 | CC(=O)NC(CC(=O)NNC(=O)C(C)Oc1ccccc1F)c1ccccc1 (stereo not given)
0.1 | 0.56 | O=C(Nc1ccccc1)c1ccc(NC(=O)C2CC2)cc1
0.14 | -3.2 | CCN1C(=NCCOC)N[C@@H](c2cccs2)C(C(=O)OC)=C1C
0.65 | 1.4 | CCCCc1nc2cc(C(=O)N3CCCCC3CCO)ccc2o1 (stereo not given)
0.07 | -0.35 | O=S(=O)(Nc1cccc(-c2ccc3nncn3n2)c1)c1cccs1
0.56 | -0.93 | CSc1ccc(CCNC(=O)CS(=O)(=O)Cc2nc(-c3ccccc3F)oc2C)cc1
0.07 | 1.2 | O=C(CCSc1nnc(-c2ccc(O)cc2)o1)N1CCOCC1
